High-throughput results deposited in PubChem by several laboratories.
BJeLR lethal = kills HRASV12-expressing BJeLR cells; BJeLR (HRASV12) viability, CellTiter-Glo ATP luminescence, 48 h; reference of the scale not given here; inhibition, % (test concentration not listed); 300,000 compounds, 0.17% hits; AID 1554;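 active = replicate mean above 50%; inconclusive = above 50% but judged a plate artefact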;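 note: 50 nL library stock added to about 25 µL; numbers are from one replicate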
Autofluor counter = compound fluorescence in toxin protease inhibitor counterscreen | compound autofluorescence counterscreen, microsphere flow cytometry; stronger effect = higher value | fluorescence intensity (test concentration not listed) | 360,000 compounds, 3.1% hits;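 active = at least 3 SD above the mean of all compounds, about 16000 in these data; inconclusive = too few beads counted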;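 note: 100 nL of 1 mM stock went into each well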
Sa RN4220 lethal = kills Staphylococcus aureus RN4220; 330,000 compounds, 0.33% hits; AID 1259311; inhibition, % (concentration not given with the values); S. aureus RN4220 growth, OD600, 16 h;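 active = z-score of -3 or lower and OD600 up to 0.18 on both plates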;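 note: plate controls were untreated cells for no effect and reference antibiotic for full effect; stock transfer was 100 nL into about 80 µL; one replicate is shown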
Mtb hypoxia rep = Mtb hypoxia fluorescent reporter inhibition; 300,000 compounds, 0.1% hits; M. tuberculosis hypoxia-regulated fluorescent reporter, fluorescence; AID 1159583; fluorescence inhibition, % (concentration not given with the values);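 active = 35 to 45% if threefold the growth effect, above 45% if 1.5-fold the growth effect; inactive = the rest, general growth blockers included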;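 note: wells of about 50 µL received 100 nL stock; 0% = vehicle wells and 100% = reference inhibitor wells; whole bacteria with a GFP reporter of the hypoxia response; strong numbers were not always called active; many hits fall short of the cut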
Sa ugtP lethal = kills S. aureus RN4220 lacking UgtP | growth inhibition, % (concentration not given with the values) | AID 1259309 | S. aureus RN4220 ugtP deletion, OD600 growth, 16 h; some inactives read as strong as hits | 330,000 compounds, 0.54% hits;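 active = z-score under -3 and OD600 up to 0.15 on both plates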;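 note: plate controls were untreated wells for no effect and antibiotic for full effect; wells of about 80 µL received 100 nL stock; the first replicate is given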
PrP UTR inh = suppresses PrP 5' UTR mRNA reporter expression; cell-based PrP 5' UTR mRNA reporter, plate reader; inhibition, % (no concentration beside the values); 340,000 compounds, 0.35% hits;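 active = every replicate at 50% or more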;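 note: 0 = median of the neutral control wells; tested in H4 reporter cells; numbers are from one replicate; inactives centre near -14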
Mtb hypoxia rep growth = further read-out of Mtb hypoxia rep, marked with its call; growth inhibition, %; measured here: M. tuberculosis growth (absorbance);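 0% = vehicle and 100% = reference antibiotic; read after six days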
Numbers without * were called inactive; & = joins results of further samples. Compounds were not picked by outcome; any-hit rate near 4%.

Results for COc1ccc(CNC(=O)CN2CCN(c3cccc(C)c3C)CC2)cc1 ?
BJeLR lethal: -8; Autofluor counter: 3875; Sa RN4220 lethal: 6.2; Mtb hypoxia rep: 0; Sa ugtP lethal: 6; PrP UTR inh: -23; Mtb hypoxia rep growth: 0

Results for CN(C)C(=O)N1CCN(C(=O)N2CCOCC2)CC1 ?
BJeLR lethal: -8; Autofluor counter: 3537; Sa RN4220 lethal: 3.5; Mtb hypoxia rep: 2; Sa ugtP lethal: 5; PrP UTR inh: -14; Mtb hypoxia rep growth: 7

How did O=C(Cc1nc2ccccc2[nH]1)NCc1ccco1 do in these assays?
BJeLR lethal: 4; Autofluor counter: 3525; Sa RN4220 lethal: 5.4; Sa ugtP lethal: 5; PrP UTR inh: -12

What do the screens show for `Cc1cccc(Nc2ncnc(N)n2)c1`?
BJeLR lethal: 9; Autofluor counter: 4347; Sa RN4220 lethal: 8.1; Mtb hypoxia rep: 12; Sa ugtP lethal: 4; PrP UTR inh: -15; Mtb hypoxia rep growth: 5

How did CC(=O)N1CCCc2cc(S(=O)(=O)N3CCCC(C(=O)Nc4cccc(F)c4)C3)ccc21 (configuration not stated) do in these assays?
BJeLR lethal: 9; Autofluor counter: 5788; Sa RN4220 lethal: 2.3; Mtb hypoxia rep: -3; Sa ugtP lethal: 6; PrP UTR inh: -11; Mtb hypoxia rep growth: 0

Results for COC(=O)C1CCN(C(=O)COc2cc3sc(C)nc3c3sccc23)CC1 ?
BJeLR lethal: 8; Autofluor counter: 4341; Sa RN4220 lethal: 6.3; Mtb hypoxia rep: 7; Sa ugtP lethal: -2; PrP UTR inh: -7; Mtb hypoxia rep growth: 3

Results for CC(=O)c1c(Cl)nc2ccc(Br)cc2c1-c1ccccc1 ?
BJeLR lethal: -1; Sa RN4220 lethal: 2.5; Mtb hypoxia rep: 11; Sa ugtP lethal: 13; PrP UTR inh: -27; Mtb hypoxia rep growth: -4

How did COc1ccc(Cl)cc1N1C(=O)CC(N2CCc3ccccc32)C1=O (configuration not stated) do in these assays?
BJeLR lethal: 1; Autofluor counter: 4306; Sa RN4220 lethal: 4.5; Mtb hypoxia rep: 6; Sa ugtP lethal: 7; PrP UTR inh: 3; Mtb hypoxia rep growth: 5

How did O=C(CCCN1C(=O)/C(=C/c2ccccc2Cl)SC1=S)NNC(=O)c1ccccc1 do in these assays?
BJeLR lethal: -7; Autofluor counter: 11234; Sa RN4220 lethal: -12; Mtb hypoxia rep: 4; Sa ugtP lethal: -11; PrP UTR inh: -7; Mtb hypoxia rep growth: 20

Results for N#Cc1ccccc1NS(=O)(=O)c1cc2c3c(c1)CCC(=O)N3CCC2 ?
BJeLR lethal: 1; Autofluor counter: inconclusive; Sa RN4220 lethal: 16; Mtb hypoxia rep: 8; Sa ugtP lethal: -5; PrP UTR inh: -12; Mtb hypoxia rep growth: 7

What do the screens show for `O=C(COc1ccccc1)Nc1ccc(Cl)c(-c2nc3ncccc3o2)c1`?
Autofluor counter: 2590; Sa RN4220 lethal: 0.7; Sa ugtP lethal: -1; PrP UTR inh: -23

Results for Cc1ccc(S(=O)(=O)N2CCC(=O)N(C(COCc3cccc(C)c3)Cc3ccccc3)CC2)cc1 (configuration not stated) ?
BJeLR lethal: -16; Autofluor counter: 3800; Sa RN4220 lethal: -3.3; Mtb hypoxia rep: 4; Sa ugtP lethal: 3; PrP UTR inh: -9; Mtb hypoxia rep growth: 5

Results for O=C(CCCn1ncn2c(cc3occc32)c1=O)N1CCc2ccccc2C1 ?
BJeLR lethal: 1; Autofluor counter: 3504; Sa RN4220 lethal: -15; Mtb hypoxia rep: 4; Sa ugtP lethal: -4; PrP UTR inh: -1; Mtb hypoxia rep growth: 13

How did O=C(NCN1CCN(CCO)CC1)c1cnccn1 do in these assays?
BJeLR lethal: -13; Autofluor counter: 4324; Sa RN4220 lethal: -2.7; Mtb hypoxia rep: 2; Sa ugtP lethal: -10; PrP UTR inh: -1; Mtb hypoxia rep growth: 7

How did Cc1ccc(NC(=O)CN2C(=O)C(=O)N(C3CCCC3)C2=O)c(Cl)c1 do in these assays?
Autofluor counter: 5917; Sa RN4220 lethal: -6.0; Mtb hypoxia rep: -2; Sa ugtP lethal: -6; PrP UTR inh: 9; Mtb hypoxia rep growth: 11

Results for CCOC(=O)c1ccc(NC(=O)CC2Sc3ncnn3C2=O)cc1 (configuration not stated) ?
BJeLR lethal: -11; Autofluor counter: 10272; Sa RN4220 lethal: 12; Mtb hypoxia rep: 8; Sa ugtP lethal: 16; PrP UTR inh: -20; Mtb hypoxia rep growth: 6

What do the screens show for `COC(=O)C1C/C(=N\NS(=O)(=O)c2ccc(C)cc2)c2ccsc2C1` (configuration not stated)?
BJeLR lethal: -9; Autofluor counter: 2188; PrP UTR inh: -17

What do the screens show for `COc1ccc(C(=O)Nc2ccccc2C(=O)NCc2ccco2)cc1`?
BJeLR lethal: -9; Autofluor counter: 4618; Sa RN4220 lethal: -1.8; Mtb hypoxia rep: -8; Sa ugtP lethal: -3; PrP UTR inh: 5; Mtb hypoxia rep growth: -4

What do the screens show for `C=C1CCN([C@@H](C)C(=O)OCc2ccc(C)cc2)S(=O)(=O)c2ccccc21`?
BJeLR lethal: -4; Autofluor counter: 2783; PrP UTR inh: -15

What do the screens show for `O=C(c1ccncc1)N1CCN(C(=O)c2ccco2)CC1`?
BJeLR lethal: 0; Autofluor counter: 3205; Sa RN4220 lethal: 4.5; Mtb hypoxia rep: 19; Sa ugtP lethal: 2; PrP UTR inh: -17; Mtb hypoxia rep growth: 16

How did CCOc1ccc(C(=O)Nc2ccc(N3CCN(S(C)(=O)=O)CC3)cc2)cc1[N+](=O)[O-] do in these assays?
BJeLR lethal: -2; Autofluor counter: 4439; Sa RN4220 lethal: 9.0; Mtb hypoxia rep: 6; Sa ugtP lethal: 6; PrP UTR inh: -11; Mtb hypoxia rep growth: -1

Results for Cc1csc(NN=Cc2ccccn2)n1 ?
Sa RN4220 lethal: 10; Mtb hypoxia rep: 4; Sa ugtP lethal: -7; Mtb hypoxia rep growth: -7

Results for CCN(CC)Cc1c(C(=O)NN=Cc2ccncc2)nnn1-c1nonc1N ?
Sa RN4220 lethal: 2.9; Mtb hypoxia rep: 1; Sa ugtP lethal: 5; Mtb hypoxia rep growth: 9

What do the screens show for `CCOCC(=O)Nc1cccc(SC)c1`?
BJeLR lethal: -1; Autofluor counter: 4097; Sa RN4220 lethal: 5.1; Mtb hypoxia rep: 13; Sa ugtP lethal: -1; PrP UTR inh: -35; Mtb hypoxia rep growth: 12

Results for CCOc1ccc(NC(=O)c2c(NC(=O)CNCCN3CCOCC3)sc3c2CCC3)cc1 ?
BJeLR lethal: -1; Autofluor counter: 6212; Sa RN4220 lethal: 1.7; Mtb hypoxia rep: 0; Sa ugtP lethal: -4; PrP UTR inh: -7; Mtb hypoxia rep growth: 9

What do the screens show for `CCc1nnc(NC(=O)CSc2nnc(-c3ccoc3C)n2-c2cccc(C)c2)s1`?
BJeLR lethal: -4; Autofluor counter: 3550; Sa RN4220 lethal: 1.6; Sa ugtP lethal: -1; PrP UTR inh: -5

What do the screens show for `COC(=O)c1cc2c(cc1NC(=O)CSCCc1ccccn1)OCO2`?
BJeLR lethal: 13; Sa RN4220 lethal: 6.4; Mtb hypoxia rep: 6; Sa ugtP lethal: 11; PrP UTR inh: -13; Mtb hypoxia rep growth: 2

Results for Nc1nc2ccc(C(=O)Nc3ccccc3)cc2s1 ?
BJeLR lethal: 6; Autofluor counter: 2625; Sa RN4220 lethal: 2.3; Mtb hypoxia rep: 5; Sa ugtP lethal: -9; PrP UTR inh: -69; Mtb hypoxia rep growth: 4

What do the screens show for `C=CCn1c(=O)c2c(nc3n2CCCN3CCc2ccc(OC)c(OC)c2)n(C)c1=O`?
BJeLR lethal: -4; Autofluor counter: 3893; Sa RN4220 lethal: 6.0; Mtb hypoxia rep: -6; Sa ugtP lethal: 8; PrP UTR inh: -14; Mtb hypoxia rep growth: 2

Results for Cc1ccc(C2CC(=O)C(C=NCCN3CCN(C(=S)Nc4ccccc4)CC3)=C(O)C2)cc1 (configuration not stated) ?
BJeLR lethal: 5; Autofluor counter: 2215; Sa RN4220 lethal: 3.0; Mtb hypoxia rep: 2; Sa ugtP lethal: -5; PrP UTR inh: -23&-24; Mtb hypoxia rep growth: 3

Ordered by length of the SMILES (largest number first): part of the list above
Results for CCOc1ccc(NC(=O)c2c(NC(=O)CNCCN3CCOCC3)sc3c2CCC3)cc1 ?
BJeLR lethal: -1; Autofluor counter: 6212; Sa RN4220 lethal: 1.7; Mtb hypoxia rep: 0; Sa ugtP lethal: -4; PrP UTR inh: -7; Mtb hypoxia rep growth: 9

Results for Nc1nc2ccc(C(=O)Nc3ccccc3)cc2s1 ?
BJeLR lethal: 6; Autofluor counter: 2625; Sa RN4220 lethal: 2.3; Mtb hypoxia rep: 5; Sa ugtP lethal: -9; PrP UTR inh: -69; Mtb hypoxia rep growth: 4

What do the screens show for `CCOCC(=O)Nc1cccc(SC)c1`?
BJeLR lethal: -1; Autofluor counter: 4097; Sa RN4220 lethal: 5.1; Mtb hypoxia rep: 13; Sa ugtP lethal: -1; PrP UTR inh: -35; Mtb hypoxia rep growth: 12

More compounds:
What do the screens show for `Cc1ccc(S(=O)(=O)NC(=O)NCc2ccc(Cl)cc2)cc1`?
BJeLR lethal: -8; Autofluor counter: 2527; Sa RN4220 lethal: 2.5; Sa ugtP lethal: 5; PrP UTR inh: -7

Results for CCCCCCCN1CCN=C1Nc1ccccc1 ?
Autofluor counter: 2922; Sa RN4220 lethal: 16; Mtb hypoxia rep: 8; Sa ugtP lethal: 11; PrP UTR inh: -12; Mtb hypoxia rep growth: 7

How did COc1cc(CN2CCCC(CCC(=O)NCc3ccc(C)o3)C2)cc2c1OCO2 (configuration not stated) do in these assays?
BJeLR lethal: -5; Autofluor counter: 3092; Sa RN4220 lethal: 2.8; Mtb hypoxia rep: 14; Sa ugtP lethal: 9; PrP UTR inh: -11; Mtb hypoxia rep growth: 2

Results for CCCn1c(N)c(C(=O)CSc2nnc3ccccn23)c(=O)n(C)c1=O ?
Autofluor counter: inconclusive; Sa RN4220 lethal: 0.2; Mtb hypoxia rep: -12; Sa ugtP lethal: 4; PrP UTR inh: -15; Mtb hypoxia rep growth: 4

How did CCOC(=O)C1CCN(c2ncnc3c2cnn3-c2ccccc2)CC1 do in these assays?
BJeLR lethal: 12; Autofluor counter: 9920; Sa RN4220 lethal: 3.3; Mtb hypoxia rep: 0; Sa ugtP lethal: 1; PrP UTR inh: -23; Mtb hypoxia rep growth: 7

What do the screens show for `CCCC(c1nnnn1C1CCCC1)N1CCN(C(=O)c2ccco2)CC1` (configuration not stated)?
BJeLR lethal: -4; Autofluor counter: 2635; Sa RN4220 lethal: 0.5; Sa ugtP lethal: 6; PrP UTR inh: -26

How did Cc1ccc(C)c(NC(=O)CN(C)C(=O)c2nn(C)c(=O)c3ccccc23)c1 do in these assays?
BJeLR lethal: 13; Autofluor counter: 4540; Sa RN4220 lethal: -3.9; Mtb hypoxia rep: 7; Sa ugtP lethal: 2; PrP UTR inh: -11; Mtb hypoxia rep growth: -3

How did Cc1ccccc1C(=O)OCC(=O)Nc1cccc(S(=O)(=O)NC2=NCCC2)c1 do in these assays?
Autofluor counter: 3896; Sa RN4220 lethal: 4.7; Mtb hypoxia rep: 19; Sa ugtP lethal: 3; PrP UTR inh: -12; Mtb hypoxia rep growth: 10

What do the screens show for `Cc1cc(C)c(NC(=O)CNC(=O)COC(=O)CNC(=O)c2ccc(Cl)cc2Cl)c(C)c1`?
BJeLR lethal: -2; Sa RN4220 lethal: 1.4; Mtb hypoxia rep: 1; Sa ugtP lethal: 0; PrP UTR inh: -6; Mtb hypoxia rep growth: 9

How did COc1ccc(CNC(=O)COC(=O)CN2C(=O)C3CC=CCC3C2=O)cc1 (configuration not stated) do in these assays?
Autofluor counter: 2936; Sa RN4220 lethal: 1.0; Mtb hypoxia rep: 2; Sa ugtP lethal: 1; PrP UTR inh: 20; Mtb hypoxia rep growth: 9

Results for O=S(=O)(c1cccc(-c2nnc(-c3cccnc3)o2)c1)N1CCCCC1 ?
BJeLR lethal: 0; Autofluor counter: 19643*; Sa RN4220 lethal: 5.5; Mtb hypoxia rep: 9; Sa ugtP lethal: 3; PrP UTR inh: -9; Mtb hypoxia rep growth: 19
